# UCH37 inh – human UCH37 deubiquitinating enzyme inhibition; 330,000 compounds, 0.33% hits; Q9Y5K5; purified proteasome/UCH37, Ub-AMC cleavage fluorescence; inhibition, % (concentration not given with the values);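 active = mean of two replicates above 20%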;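 note: 0% = compound-free wells with enzyme and 100% = wells lacking proteasome; stock transfer was 100 nL into about 20 µL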
#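 system = Proteasome-associated human UCH37 deubiquitinase | amount = 0.15 nM proteasome as dispensed | medium = pH 7.4 Tris-HCl (50 mM) with ovalbumin, ATP-MgCl2, DTT | incubation = 30 min preincubation with enzyme, 25 min cleavage at room temperature | detection = AMC fluorescence 355/460 nm | read-out basis = percent inhibition | controls = no-proteasome and no-compound wells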
# Vif A3G – inhibitors of Vif binding to APOBEC3G peptide, primary screen, biochemical, TR-FRET, GST-Vif 1-94, biotin-A3G peptide, dose response retest (AID 1117319) | TR-FRET GST-Vif / biotin-A3G peptide binding; higher % means a stronger effect; test concentration not given here; strong numbers were not always called active | inhibition, %; hits with a dose series show IC50 in µM | 260,000 compounds, 0.57% hits;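 active = above the screen mean plus three standard deviations and confirmed in dose response; inconclusive = results disagree or hit not tested in dose response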;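 note: Vif residues 1-94 fused to GST binding biotinylated APOBEC3G peptide 110-148; 0% = full assay without inhibitor and 100% = GST in place of GST-Vif; retest series ran down from 100 µM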
# Ecoli growth – E. coli growth inhibition | Escherichia coli growth, OD600, 23 h; stronger effect = lower value | OD600 absorbance (test concentration not listed) | 330,000 compounds, 0.21% hits | AID 1053175;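 active = OD600 absorbance below the run mean of sample wells minus 3.6 SD, in any replicate, cut at about 0.56 in these data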;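 note: stock transfer was 300 nL into about 60 µL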
# B2AR ag – human beta-2 adrenergic receptor agonism by FAP. response, % (concentration not given with the values). P07550. Am2.2-beta2AR cells, FAP receptor internalization, flow cytometry; reference of the scale not given here. 340,000 compounds, 0.43% hits. AID 504454;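 active = response above a set limit, near 3 SD of response in nonfluorescent compounds, cut at about 42% in these data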;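 note: stock transfer was 100 nL into about 11 µL; a reference agonist was the positive control; negative values mostly stem from fluorescent compounds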
# HNF4A DNA FP – change in binding of human HNF4 alpha to DNA | P41235 | HNF4a-FITC DNA binding, fluorescence polarization, 1 h | activity change, % at 10 µM | 360,000 compounds, 0.3% hits; in the data active = activity change above about 30%, passing the limit was not always enough;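 note: controls were the assay level and a saturating level of protein; the project sought stronger binding though the title names inhibitors; some compounds called inactive have numbers as strong as hits; positive values seem to mean higher polarization but the record does not say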
# LANA-H2A inh – blocks KSHV LANA binding to histone H2A/H2B; inhibition, % (no concentration beside the values); Q9QR71; cell-free LANA-H2A/H2B peptide, fluorescence polarization; AID 2629; 320,000 compounds, 0.6% hits; in the data active = inhibition mostly above about 10%, no sharp cut-off; inactive = mostly below about 6.7%;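 note: stock transfer was 7.5 nL into about 10 µL; 0% = median of vehicle wells and 100% = median of positive control wells; one replicate is shown; the record names a cut of 25% in any replicate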
# Target sequence (Q9QR71 whole entry, looked up): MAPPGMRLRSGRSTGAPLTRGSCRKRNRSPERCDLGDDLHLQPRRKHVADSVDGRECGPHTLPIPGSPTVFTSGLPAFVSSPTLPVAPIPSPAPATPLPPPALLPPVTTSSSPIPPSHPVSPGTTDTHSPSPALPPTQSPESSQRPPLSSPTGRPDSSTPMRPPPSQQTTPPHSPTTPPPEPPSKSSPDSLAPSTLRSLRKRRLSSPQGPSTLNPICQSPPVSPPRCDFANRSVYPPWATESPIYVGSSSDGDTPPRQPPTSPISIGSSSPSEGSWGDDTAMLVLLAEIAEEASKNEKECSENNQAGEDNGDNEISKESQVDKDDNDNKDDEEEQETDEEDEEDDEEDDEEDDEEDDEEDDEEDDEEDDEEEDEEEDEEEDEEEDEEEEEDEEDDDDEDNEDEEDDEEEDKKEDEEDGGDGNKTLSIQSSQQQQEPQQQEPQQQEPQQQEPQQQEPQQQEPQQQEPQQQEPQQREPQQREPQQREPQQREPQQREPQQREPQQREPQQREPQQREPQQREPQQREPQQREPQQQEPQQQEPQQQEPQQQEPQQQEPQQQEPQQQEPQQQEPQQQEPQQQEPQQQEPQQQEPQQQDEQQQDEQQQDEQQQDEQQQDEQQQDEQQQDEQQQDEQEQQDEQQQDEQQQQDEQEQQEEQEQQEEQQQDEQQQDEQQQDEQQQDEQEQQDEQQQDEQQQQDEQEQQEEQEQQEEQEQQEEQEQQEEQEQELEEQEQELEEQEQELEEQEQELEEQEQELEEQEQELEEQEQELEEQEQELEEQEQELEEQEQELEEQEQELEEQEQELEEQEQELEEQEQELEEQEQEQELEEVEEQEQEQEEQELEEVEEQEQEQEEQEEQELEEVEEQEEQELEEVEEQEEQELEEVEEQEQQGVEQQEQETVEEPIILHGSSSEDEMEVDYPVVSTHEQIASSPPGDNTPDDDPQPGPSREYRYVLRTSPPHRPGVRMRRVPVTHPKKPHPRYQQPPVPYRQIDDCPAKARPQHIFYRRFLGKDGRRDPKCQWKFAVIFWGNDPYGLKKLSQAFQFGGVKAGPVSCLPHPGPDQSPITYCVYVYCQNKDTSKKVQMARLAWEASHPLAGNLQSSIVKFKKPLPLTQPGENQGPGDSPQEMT
# A1 inh – inhibitors of the anti-apoptotic protein A1, read as caspase activation; caspase activation, % (test concentration not listed); MEF A1-2A-BIM cells, Caspase-Glo 3/7 luminescence, 3 h; percent of clofoctol response, vehicle zero; 330,000 compounds, 0.066% hits;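 active = over half of replicate activation scores above 10%, or exactly half above 10 with the replicate mean above 10; inconclusive = replicate mean below 10 yet half the replicates above 10; inactive = over half of replicates below 10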;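 note: wells of about 30 µL received 50 nL stock; many hits fall short of the cut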
# * marks the source's active call; other numbers are inactive results; ? = inconclusive; . = not tested or not shown; & = joins results of further samples.
SMILES,UCH37 inh,Vif A3G,Ecoli growth,B2AR ag,HNF4A DNA FP,LANA-H2A inh,A1 inh
COc1ccc(-c2c(=O)n(OCc3nc4ccccc4[nH]3)c3ccccc3[n+]2[O-])cc1,3.8,.,0.64,-5,-1.8,-3.4,0.4
O=C(Nc1cccc(O)c1)c1ccccc1[N+](=O)[O-],0.1,4%,0.65,12,1.6,5.4,-0.5
O=C(CNC(=O)c1ccc(Cl)cc1Cl)OCCCn1c(=O)[nH]c2ccccc21,0.6,6%,0.65,-1,0.5,-1.7,0.2
Cc1ccsc1C(=O)NCCc1ccc(S(N)(=O)=O)cc1,-0.3,.,0.72,-3,2.5,3.0,0.2
COc1cccc(CNC(=O)CCC2CCCN(Cc3ccc4c(c3)CCO4)C2)c1 (stereo unspecified),1.8,4%,0.71,-5,1.8,3.3,2.1
COc1ccc(CCNC(=O)CCn2c(=O)oc3ccccc32)cc1OC,2.5,0%,0.71,2,-0.3,-1.3,?
CCN(C(=O)c1ccccc1)c1ccc([N+](=O)[O-])cc1,2.5,-2%,0.68,-6,3.0,-0.6,1.4
CCN(CC)C(=O)[C@H]1C[C@H](CC(=O)NCCCn2ccnc2)C(=O)N2CCc3c([nH]c4ccc(Cl)cc34)[C@]12C,-1.0,.,0.68,-7,0.9,.,.
Cc1ccccc1NC(=O)CN(C)S(=O)(=O)c1ccc(-c2ccc(=O)[nH]n2)s1,2.5,.,0.72,-8,-1.2,3.1,2.1
CC(=O)N1CCc2cc(S(=O)(=O)NC(CC(C)C)C(=O)N3CCc4ccccc4C3)ccc21 (stereo unspecified),2.8,10%&8%,0.66,-12,0.2,-1.7,-0.3
O=C(NCc1ccccn1)C(=O)Nc1nc(-c2ccccc2)cs1,-1.1,-7%,0.69,0,1.7,6.1,-0.6
Cc1c(C(=O)N2CCCCC2)oc2ccc(S(=O)(=O)N3CC(C)CC(C)C3)cc12 (stereo unspecified),2.6,4%,0.76,3,5.0,1.7,-0.7
Cc1ccc(-c2nnc(SCc3nc(N)nc(Nc4ccccc4C)n3)n2N)cc1,.,18%,.,6,3.4,-1.7,-0.2
COc1ccc(CNC(=O)C2CCC(=O)N(CC3CCCCC3)C2)cc1 (stereo unspecified),-1.4,1%,0.69,-11,-2.1,-2.9,0.6
COc1ccccc1OCC(=O)Nc1cccc(-c2nc3ccccc3o2)c1,5.1,1%,0.72,6,2.7,3.8,-1.6
O=C(NC1CCCCCCC1)c1cc([N+](=O)[O-])ccc1Cl,-0.5,.,0.66,-4,4.3,0.7,0.8
CC1Cc2ccccc2N1C(=O)CCNS(=O)(=O)c1ccc2c(c1)CCC(=O)N2 (stereo unspecified),1.1,14%,0.64,7,-0.3,0.2,2.0
O=C(OCC(=O)N1CCCC1)c1ccccc1C(=O)c1ccccc1,1.1,-7%,0.67,5,3.6,4.4,-0.5
C[C@H](NC(=O)OC(C)(C)C)c1nnc(SCC(=O)Nc2ccc(Br)cc2)o1,1.2,13%,0.6,13,2.3,4.9,0.5
C=CCn1c(COc2ccc(Cl)cc2)nnc1SCC(=O)N/N=C/c1ccccc1,.,3%,.,-8,-0.6,6.4,0.8
CNC(=S)Nc1cccc(C(=O)O)c1,-0.1,9%,0.64,-3,-1.4,4.9,-0.6
Cc1c(-c2ccccc2)nc2ccccc2c1C(=O)Oc1ccc([N+](=O)[O-])cc1,2.8,8%,0.74,-9,-0.6,-0.6,-0.8
O=C(CCC(=O)c1ccc(F)cc1)Nc1cccc(C(F)(F)F)c1,3.4,-6%,0.69,-1,-0.2,-2.6,0.7
Cc1cc2cc(CNC(=O)c3ccc4c(c3)OCO4)ccc2n1C,3.8,12%,0.67,-1,-4.9,-2.2,0.3
CC1(C)Oc2ccc3ccc(=O)oc3c2/C(=C/NC2CCCCC2)C1=O,0.5,-3%,0.77,8,1.0,1.7,-0.3

# Record cards, as listed above. Order of screens: UCH37 inh, Vif A3G, Ecoli growth, B2AR ag, HNF4A DNA FP, LANA-H2A inh, A1 inh
# Results for CCN(CC)C(=O)[C@H]1C[C@H](CC(=O)NCCCn2ccnc2)C(=O)N2CCc3c([nH]c4ccc(Cl)cc34)[C@]12C → -1.0, ., 0.68, -7, 0.9, ., .
# Results for COc1ccc(CCNC(=O)CCn2c(=O)oc3ccccc32)cc1OC → 2.5, 0%, 0.71, 2, -0.3, -1.3, ?
# Results for O=C(CCC(=O)c1ccc(F)cc1)Nc1cccc(C(F)(F)F)c1 → 3.4, -6%, 0.69, -1, -0.2, -2.6, 0.7
# Results for COc1ccc(CNC(=O)C2CCC(=O)N(CC3CCCCC3)C2)cc1 (stereo unspecified) → -1.4, 1%, 0.69, -11, -2.1, -2.9, 0.6
# Results for Cc1ccccc1NC(=O)CN(C)S(=O)(=O)c1ccc(-c2ccc(=O)[nH]n2)s1 → 2.5, ., 0.72, -8, -1.2, 3.1, 2.1

# More structures follow.
SMILES,UCH37 inh,Vif A3G,Ecoli growth,B2AR ag,HNF4A DNA FP,LANA-H2A inh,A1 inh
COc1ccc2nc(N3CCOCC3)cc(C)c2c1,-329,5%,0.65,-4,1.0,2.5,0.1
Cc1cc(C(=O)N2CCCC(N3CCN(c4cccc(C(F)(F)F)c4)CC3)C2)n[nH]1 (stereo unspecified),3.7,1%,0.68,-5,-1.4,-1.0,0.2
CC(C)Oc1ccc(C(=O)Nc2ncn[nH]2)cc1,2.7,.,0.65,-4,-4.0,4.6,-0.3
CS(=O)(=O)N1CCC(C(=O)N2CCN(c3cccc(Cl)c3)CC2)CC1,4.0,.,0.68,-2,-0.4,3.1,1.6
O=C(Oc1ccccc1Cl)C1CCN(C(=O)c2ccc(F)cc2)CC1,5.4,-4%,0.68,0,2.6,-3.0,1.6
C/C=C/c1ccc(OCC(O)CNCCc2ccc(OC)cc2)c(OC)c1 (stereo unspecified),1.3,-2%,0.64,-9,-5.8,-5.1,0.6
N#CC1=C(N)NC(SCc2ccc(Br)cc2)=C(C#N)C12CCCCC2,3.9,2%,0.62,0,3.1,3.7,0.7
CCn1nc(NC(=O)c2cccs2)c2cc3ccccc3nc21,-17,.,0.7,7,3.9,-0.1,-0.7
O=C(CSc1nc2ccccc2s1)NC1CCCC1,3.1,.,0.67,10,-0.2,12,-0.1
Cc1ccc2c(O)c(C)c(=O)[nH]c2n1,1.7,-2%,0.67,9,1.0,4.4,1.0
CC(=O)Nc1ccc(S(=O)(=O)NNC(=O)c2cccc3ccccc23)cc1,0.2,6%,0.71,-5,-2.8,-6.1,0.9
Cc1ccc(C(=O)N2CCCC2)cc1S(=O)(=O)N1CCCCC1,2.6,.,0.7,-6,-4.7,6.2,-0.8
CN1CCN(C2CC(=O)N(CCc3ccccc3)C2=O)CC1 (stereo unspecified),2.7,-12%,0.65,-5,-2.3,-1.7,0.3
COc1ccc(C(=O)O/N=C(\N)c2ccccn2)cc1,.,.,.,-3,5.2,2.7,-8.2
CC1=C(C(=O)Nc2ccccc2)C(c2ccco2)C(C#N)=C(SCc2ccccc2)N1 (stereo unspecified),-11,0%,0.74,.,.,0.4,0.0
COc1cccc(C(=O)Nc2cnn(C(C)C)c2)c1,0.0,1%,0.67,-5,2.5,-0.8,-2.5
CCOC(=O)C1=NN(c2ccccc2)C2(S1)SC(C(C)=O)=C(C)N2c1ccccc1 (stereo unspecified),4.0,?,0.72,15,-0.3,1.7,0.4
COc1ccc(/C=N/Nc2nonc2N)cc1,.,?,.,-15,-1.8,1.5,0.1
COc1cc(C(=O)Nc2c(C(=O)N3CCOCC3)oc3ccccc23)cc(OC)c1OC,1.1,.,0.72,-12,-0.4,-1.9,0.1
O=C(O)CC(NC(=O)C12CC3CC(CC(C3)C1)C2)c1ccc(Cl)cc1 (stereo unspecified),-0.5,-2%,0.69,-11,0.2,-3.6,0.8
Cc1cc(-c2nnc3n2CCCCC3)c(C)n1-c1ccccc1,0.6,-1%,0.66,-13,-4.0,-4.6,0.3
CCOC(=O)N/N=C(/C)c1ccc(N2C(=O)C3CCCCC3C2=O)cc1 (stereo unspecified),.,-6%,.,-6,2.5,0.2,0.0
COc1ccc2c(c1)CCC(C)N2C(=O)C(=O)c1c[nH]c2ccccc12 (stereo unspecified),0.9,23%,0.69,-7,4.6,0.3,-0.5
O=C(COC(=O)/C=C/c1ccc(C(F)(F)F)cc1)Nc1ccc2[nH]c(=O)[nH]c2c1,3.4,-6%,0.71,6,-6.2,.,.
O=C(c1ccncc1)N1CCN(S(=O)(=O)c2ccc3ccccc3c2)CC1,-0.6,.,0.69,-8,0.2,0.8,0.7
# Additional results follow:
SMILES,UCH37 inh,Vif A3G,Ecoli growth,B2AR ag,HNF4A DNA FP,LANA-H2A inh,A1 inh
COc1cc2cc[n+](Cc3ccc([N+](=O)[O-])cc3)cc2cc1OC,5.7,11%,0.7,-2,0.7,1.3,1.8
COC(=O)[C@]1(Cc2ccccc2)N[C@H](CN(C)S(=O)(=O)c2ccc(OC(F)(F)F)cc2)[C@@H]2C(=O)N(Cc3ccccc3)C(=O)[C@@H]21,6.0,-2%,0.76,-12,3.1,0.1,1.0
COc1cc([C@@H]2CC=C(C(=O)O)[C@H](c3ccc(Cl)cc3)N2S(=O)(=O)c2ccc(C)cc2)cc(OC)c1OC,-34,.,.,4,0.4,0.4,0.6
O=C(NCc1ccco1)c1ccccc1-c1nc(-c2ccc(F)cc2)no1,4.8,12%,0.64,0,-5.2,1.0,0.7
O=C(NC1CCS(=O)(=O)C1)/C(=C\c1ccccc1)NC(=O)c1ccccc1 (stereo unspecified),4.8,.,0.68,-6,0.4,-4.6,0.1
O=C(NCc1ccc(Cl)cc1)C(=O)NCC1OCCN1S(=O)(=O)c1cccs1 (stereo unspecified),-0.1,12%,0.71,-6,2.9,-4.7,-0.1
Cc1cc(C)cc(OCC(=O)Nc2ccccc2N2CCCCC2)c1,2.5,16%,0.74,3,4.5,4.5,-0.8
O=C(CSc1ccc2c(c1)OCCO2)Nc1ccc(N2CCOCC2)cc1,-0.9,6%,0.71,1,-1.9,2.4,0.8
O=C(Cc1cccc(C(F)(F)F)c1)NCc1ccc(Cl)cc1Cl,3.5,.,0.67,-6,1.4,1.9,0.4
O=C(NCC1CCCO1)c1ccc(NC(=O)C2CC=CCC2C(=O)O)cc1 (stereo unspecified),1.6,-2%,0.77,-6,0.0,-3.0,0.5
CCN1CCc2nc(N)oc2CC1,2.6,.,0.69,-10,1.4,2.1,0.8
Fc1ccccc1/C=N/n1cc(-c2ccccc2)[nH]c1=S,.,.,.,-3,1.6,1.7,0.1
O=C(NCCCn1ccnc1)C(=O)Nc1ccccc1,5.5,25%,0.69,-7,0.3,1.3,-0.4
Clc1ccc(C2[C@H]3CN(CC4CCCCC4)[C@H](c4ccccc4)C34CC2(c2cccnc2)C4)cn1 (stereo partly specified),0.6,16%,.,7,1.7,3.2,0.4
COCCCN1C(=O)C2C(C(=O)Nc3cc(C)cc(C)c3)C3C=CC2(O3)C1C(=O)NC1CCCCC1 (stereo unspecified),2.5,.,0.7,7,-4.0,0.3,1.9
COc1ccc(CNc2ccc(Cl)cc2)cc1Cn1ccnc1,-0.1,-4%,0.6,-2,0.6,-3.9,-0.3
O=C(NCc1ccccc1)C1CCC(CNS(=O)(=O)c2cccs2)CC1 (stereo unspecified),-1.7,.,0.66,-3,2.2,-2.6,0.0
O=C(NN=Cc1ccccc1C(=O)O)c1cccc(S(=O)(=O)Nc2cccc(C(F)(F)F)c2)c1,3.7,.,0.68,-3,2.4,-0.1,-12
CC(=O)Nc1ccc(NC(=O)C(C)OC(=O)c2oc3ccccc3c2C)cc1 (stereo unspecified),5.5,3%,0.66,-10,1.8,-6.0,0.6

# Screening data as filed in PubChem.
